VDR inhibitor: inhibitors of human vitamin D receptor; P11473; VDR-SRC2-3 peptide fluorescence polarization, 2 h; Potency, µM, for the others: max response, negative = inhibition, actives largely listed as inhibitors; actives 0.93% (n = 400,000); active = well fitted inhibition curve with a large enough effect; inconclusive = small, poorly fitted or top-dose-only effect, or another doubt; inactive = no such curve, though single readings can be large or run the other way; note: series mostly up to about 120 µM
Target sequence (P11473 whole entry, looked up): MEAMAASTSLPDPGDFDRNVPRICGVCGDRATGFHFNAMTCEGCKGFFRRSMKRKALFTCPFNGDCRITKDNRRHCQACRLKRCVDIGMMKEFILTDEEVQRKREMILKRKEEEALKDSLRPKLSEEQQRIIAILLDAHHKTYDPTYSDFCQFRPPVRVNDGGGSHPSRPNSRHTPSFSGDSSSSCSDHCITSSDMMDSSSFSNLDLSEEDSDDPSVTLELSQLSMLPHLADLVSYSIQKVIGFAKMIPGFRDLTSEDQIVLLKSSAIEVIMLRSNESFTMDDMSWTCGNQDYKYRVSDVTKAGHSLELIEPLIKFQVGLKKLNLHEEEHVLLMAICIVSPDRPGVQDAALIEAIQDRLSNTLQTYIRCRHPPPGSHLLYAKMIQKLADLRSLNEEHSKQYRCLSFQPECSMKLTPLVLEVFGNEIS
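After 23 nl compound addition and a short centrifugation, plates sat for 2 hours at ambient temperature; polarization of fluorescence then indicated loss of VDR binding to peptide SRC2-3.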
Numbers without * were called inactive; u = inconclusive; & = joins results of further samples; ! = repeats disagree; [ ] = another dose, or the depositor's remark. % is set by controls: 0 for no effect and ±100 for the full control effect; potency is the fitted concentration of half-maximal effect. The list is partial, so the mix of outcomes need not match the whole.

SMILES | VDR inhibitor
C=C1C(=O)OC2CC1C(O)CC(C)=CCCC(C)=CC(O)CC2C (stereo unspecified) | u
CC(OC(=O)C1CSC2(C)CCC(=O)N12)C(=O)Nc1cccc(C#N)c1 (stereo unspecified) | -4%
Cc1cccc(C(=O)Nc2cccc(S(=O)(=O)NCc3ccco3)c2)c1 | -10%
C=CCn1c(SCc2c(C)noc2C)nc2ccccc2c1=O | -4%
CCc1ccc(-c2nc(CN3CCCC(C(=O)O)C3)c(C)o2)cc1 (stereo unspecified) | 10%
Cc1c(Cl)cccc1-c1ccc(CNCCCSc2nnnn2C)o1 | 17%
COc1ccc(S(=O)(=O)N2CCCN(CC(=O)Nc3ccc(OC)cc3OC)CC2)cc1 | -7%
CCCNC(=O)CN1C(=O)c2c(c3ccccc3n2C)C1c1ccc(OC)cc1 (stereo unspecified) | -1%
Cc1cc(Nc2ccc(Cl)cc2)n(-c2cccc(Cl)c2)n1 | -13%
CC(C)(C)c1ccc(OCCCNCc2ccccc2)cc1 | -1%
c1ccc2c(c1)nnn2-c1ncnc2sc3c(c12)CCCC3 | 0%
C=CCOC(=O)/C(=C\c1ccccc1)NC(=O)c1ccc(C)cc1 | -6%
COc1ccc(Cn2c(=O)[nH]c3cc(C(=O)N4CCN(c5ccccc5)CC4)ccc3c2=O)cc1 | -3%&15%
COc1ccc(CNC(=O)c2ccc(C)o2)cc1 | 16%
Cc1cc(C(C)c2ccccc2)c(O)c(CN2CCOCC2)c1C (stereo unspecified) | -2%
Cc1cc(C)nc(SCC(=O)n2c3c(c4ccccc42)CCCC3)n1 | -8%
CC(C)(C)NC(=O)COC(=O)c1cc(S(=O)(=O)N2CCCCC2)ccc1N1CCOCC1 | 2%
CN1C(c2ccccc2)CC(=NO)CC1c1ccccc1 (stereo unspecified) | -11%
Cn1cccc1C(=O)NCC(c1ccco1)N1CCCCC1 (stereo unspecified) | 1%
CC(C)NC(=O)CC1OC(=O)c2ccccc21 (stereo unspecified) | 5%
CC1(C)Oc2cc3oc(=O)ccc3cc2C[C@@H]1O | 9%
COc1ccc(S(=O)(=O)N(C)C[C@H]2Oc3c(NC(=O)NC4CCCCC4)cccc3C(=O)N([C@H](C)CO)C[C@@H]2C)cc1 | 6%
Cc1ccc(-n2ncc(C(=O)N3CCN(c4ccccc4F)CC3)c2C2CCN(C(=O)OC(C)(C)C)CC2)cc1C | -3%
Cc1ccc2cc(C#N)c(N3CCCN(C(=S)NCCCN(C)C)CC3)nc2c1 | 5%
CCOC(=O)Cc1csc(NC(=O)c2sc3nc4ccc(C)cc4cc3c2N)n1 | 13%

Brought forward from above: 2 entries, then new ones.
SMILES | VDR inhibitor
Cc1ccc2cc(C#N)c(N3CCCN(C(=S)NCCCN(C)C)CC3)nc2c1 | 5%
CCOC(=O)Cc1csc(NC(=O)c2sc3nc4ccc(C)cc4cc3c2N)n1 | 13%
O=C(CN1C(=O)NC(c2ccccc2)(c2ccccc2)C1=O)N1CCCCC1 | -10%
CC(=O)NC12CC3CC(C1)CC(C(=O)N1CCN(S(=O)(=O)c4ccc(C(C)C)cc4)CC1)(C3)C2 | -10%
O=C(Cn1nc(-c2cccc(Cl)c2)ccc1=O)Nc1ccccc1Br | -7%
COC(=O)CSc1nc2nc(C)cc(C)n2n1 | -21%
Cc1onc(-c2c(F)cccc2Cl)c1C(=O)N1C=CC(C(F)(F)F)=NCC1 | 7%
CCc1nn(C(CC)C(=O)NCCc2ccc(OC)cc2OC)c(=O)c2cc3occc3n12 (stereo unspecified) | 7%
Cc1cc(C)n2nc(SCc3cc(=O)oc4ccc5ccccc5c34)nc2n1 | -1%
COc1cc2c(C#N)c(N3CCCC3)nc(N)c2c(N)n1 | 28µM*!
CCOC(=O)C1CCCN(CCC(=O)Nc2ccc(Br)cc2)C1 (stereo unspecified) | -11%
C/C(CCC1CC(C)(C)OC1=O)=N\NC(N)=S (stereo unspecified) | -13%
CCONC(=NC)c1nonc1N | 5%
Cc1cccc(-c2csc(NC(=O)c3cnccn3)c2C(=O)OC(C)C)c1 | 0%
Cc1ccccc1N=C1NC(=O)CC(c2ccccc2)S1 (stereo unspecified) | -5%
Cc1ccc(-c2c(C(=O)NCCc3ccccc3)oc(=O)c3ccccc23)cc1 | -10%
CC(=O)Nc1ccc(NC(=O)c2cc(-c3cc(C)cc(C)c3O)n[nH]2)cc1 | 1%
N#Cc1c(N)c(C#N)c(-c2ccc3c(c2)OCO3)c2c1CCCC2 | -6%
CC1C(C#N)=C(SCC(N)=O)NC2=C1C(=O)CC(C)(C)C2 (stereo unspecified) | u
CC(C)NCCOCCOc1ccccc1F | -3%
O=C(CCCCCn1c(=O)[nH]c2ccsc2c1=O)NCc1ccc2c(c1)OCO2 | 17%
COc1ccc(CC(=O)Nc2ccc3c(c2)CCC3)cc1OC | -2%
COC(=O)[C@H](Cc1c[nH]c2ccccc12)NCc1cccc(B(O)O)c1 | -1%
COc1ccc(N2CCN(CCCNC(=O)c3nnc(Cc4ccccc4Cl)o3)CC2)cc1 | -24%
CN(C(=S)Nc1ccc(F)cc1)C1(c2ccccc2Cl)CCCCC1=O (stereo unspecified) | -1%
CC1CCCN(C(=O)CCNC(=O)Cn2cnc3ccccc3c2=O)C1 (stereo unspecified) | 0%
CNc1ccc(-c2nc(-c3ccco3)no2)cc1[N+](=O)[O-] | 1%
SMILES | VDR inhibitor
O=C(Nc1cccc2ccccc12)N1CCc2ccccc2C1 | -3%
CC1CC(C)CN(C(=O)c2cccc3c2-c2ccccc2C3=O)C1 (stereo unspecified) | -2%
Cc1cc(NC(=O)CSCc2nc(-c3cccc(Cl)c3)oc2C)no1 | -7%
CCC(C)NC(=O)Cn1c(=O)n(CCCCC(=O)NCc2ccco2)c(=O)c2ccccc21 (stereo unspecified) | -5%
Fc1ccc(-c2nc3c4c(-c5ccccc5)c(-c5ccccc5)oc4ncn3n2)cc1 | -5%
CCN(CC)S(=O)(=O)c1ccc(C)c(NC(=S)N2CCN(C/C=C/c3ccccc3)CC2)c1 | u
Cc1ccc(C(C(=O)NCc2ccccc2)N(C(=O)c2csnn2)C2CC2)cc1 (stereo unspecified) | 5%
O=C(NC(=S)Nc1ccc(S(=O)(=O)N2CCCC2)cc1)C1CC1 | 1%
CCn1c(SC(C)C(=O)NCC2CCCO2)nc2scc(-c3ccccc3)c2c1=O (stereo unspecified) | -22%
COc1ccc(CCN2CC(C(=O)NC3CCCCC3)CC2=O)cc1OC (stereo unspecified) | 16%
COc1ccc(Cl)cc1NC(=O)c1cc(-c2ccco2)on1 | 9%
CCOc1ccc(C2(C)NC(=O)N(CCN(C)C)C2=O)cc1 (stereo unspecified) | -3%
CCN(CC)c1ccc(/C=C2/C(=O)ON=C2C)cc1 | u
CCCCn1c(N)c(N(CC(C)C)C(=O)CSc2ccccc2C)c(=O)[nH]c1=O | -14%
CCOc1ccccc1NC(=O)C(OC(=O)c1ccccc1)c1ccccc1 (stereo unspecified) | -14%
Cc1ccc(CNC(=O)C2CC(=O)N(C3CCCC3)C2)cc1 (stereo unspecified) | -8%
CN1C(=O)/C(=C\c2cc(N=Nc3ccccc3)ccc2O)SC1=S | 18%
CCOC(=O)Cn1c(=O)oc2cc(S(=O)(=O)NCCc3ccc(C)cc3)ccc21 | 15%
S=C(N/N=C/c1ccco1)NC1CC2CCC1C2 (stereo unspecified) | -5%
O=C(NCCc1ccccc1)C1CCC(Cn2c(=O)c3ccccc3n(Cc3cccnc3)c2=O)CC1 (stereo unspecified) | -18%
CN1C(=O)C(c2nnc(Nc3cccc4ccccc34)s2)C2CC1(C)Oc1ccccc12 (stereo unspecified) | -10%
COc1ccc(/C=N/NC(=O)CN(C)S(=O)(=O)c2ccc(NC(C)=O)cc2)cc1 | -6%
Cc1ccc(/C=N/NC(=O)c2cc(C)oc2C)o1 | -12%
CCCC1NC(=O)NC(C)=C1C(=O)OCC (stereo unspecified) | 23%
Cc1cc(C)cc(NC(=O)COc2coc(CN3CCN(c4ccccc4)CC3)cc2=O)c1 | -12%
SMILES | VDR inhibitor
CCC(C)(C)n1nnnc1C(c1cc2ccc(C)cc2[nH]c1=O)N(Cc1cccnc1)Cc1ccco1 (stereo unspecified) | -21%
CCN(CC(=O)Nc1ccc(OC)cc1)C(=O)c1cc(S(=O)(=O)N(C)C)ccc1N1CCCC1 | -12%
O=C(NCCOc1cccc(Oc2ccccc2)c1)c1cc(-n2cnnc2)ccc1Cl | 8%
Cc1ccccc1NC(=O)c1c(NC(=O)c2ccncc2)sc2c1CCC(C(C)(C)C)C2 (stereo unspecified) | -3%
Cc1ccc(N(C(=O)CNC(=O)c2ccco2)C(C(=O)NC2CCCC2)c2ccncc2)c(C)c1 (stereo unspecified) | 4%
Cc1ccccc1OCc1nc2c3c(ncn2n1)-c1ccccc1CC31CCCC1 | -6%
Cc1ccc(S(=O)(=O)c2cn(C)c3cc(N4CCN(c5ccccc5)CC4)c(F)cc3c2=O)cc1 | 20%
Cc1noc(NS(=O)(=O)c2ccc(NC(=O)CSc3nc4ccccc4s3)cc2)c1C | u
CNC(=O)C1CCC(Cn2c(=O)c3sccc3n(CC(=O)Nc3ccc(C)cc3C)c2=O)CC1 (stereo unspecified) | 1%
O=c1[nH]c2c(s1)C=Nc1ccccc1N2 | 4%
CCOC(=O)CCn1cc(F)c(=O)[nH]c1=O | -18%
N#Cc1c(C#N)c(-c2ccccc2)n(-c2ccccc2)c1N | 1%
O=[N+]([O-])c1cccc2c(N3CCCC3)ccnc12 | -13%
N#Cc1ccc(CO/N=C/c2ccccc2)cc1 | -10%
COc1ccc(/C=C(/CC(=O)NCc2ccc(Cl)cc2)c2nc3ccccc3s2)cc1 | -4%
COc1cccc(CNC(=O)c2ccc(NC(=O)C3CCCO3)cc2)c1 (stereo unspecified) | -4%
COc1ccccc1CN1C[C@@H]2C[C@@H](c3cccc(C)n3)N3CCC[C@@]23C1=O | -1%
CCN(CC)S(=O)(=O)c1ccc2c(c1)N(CC(=O)NCc1ccccc1)C(=O)C1CCCCN21 (stereo unspecified) | 0%
COc1ccc(OCC(=O)NCc2n[nH]c(=O)c3ccccc23)cc1 | 34%[activator]
Cc1ccccc1-n1c(SCC(=O)c2cc(C)n(C)c2C)nnc1-c1ccncc1 | 21%
O=C(CN1C(=O)NC2NC(=O)NC21)N/N=C/c1ccccc1O (stereo unspecified) | 4%
COC(=O)COc1ccc(C)cc1-n1nc2ccccc2n1 | 15%
Cc1cccc(N2CCN(C(=O)Cn3c(C)c4cnn(-c5ccccc5)c(=O)c4c3C)CC2)c1C | 6%
O=C(O)c1cccc(OCc2ccccc2Cl)c1 | 2%
CCOC(CNC(=O)CCc1c(C)nc2ncnn2c1C)OCC | -4%

Arranged by count of non-hydrogen atoms (smallest number first): part of the list above
SMILES | VDR inhibitor
O=c1[nH]c2c(s1)C=Nc1ccccc1N2 | 4%
CCOC(=O)CCn1cc(F)c(=O)[nH]c1=O | -18%
O=C(O)c1cccc(OCc2ccccc2Cl)c1 | 2%
COC(=O)COc1ccc(C)cc1-n1nc2ccccc2n1 | 15%
O=C(CN1C(=O)NC2NC(=O)NC21)N/N=C/c1ccccc1O (stereo unspecified) | 4%
CCOC(CNC(=O)CCc1c(C)nc2ncnn2c1C)OCC | -4%
COc1ccc(OCC(=O)NCc2n[nH]c(=O)c3ccccc23)cc1 | 34%[activator]
COc1cccc(CNC(=O)c2ccc(NC(=O)C3CCCO3)cc2)c1 (stereo unspecified) | -4%
COc1ccccc1CN1C[C@@H]2C[C@@H](c3cccc(C)n3)N3CCC[C@@]23C1=O | -1%
Cc1ccccc1-n1c(SCC(=O)c2cc(C)n(C)c2C)nnc1-c1ccncc1 | 21%
Cc1noc(NS(=O)(=O)c2ccc(NC(=O)CSc3nc4ccccc4s3)cc2)c1C | u
Cc1ccccc1NC(=O)c1c(NC(=O)c2ccncc2)sc2c1CCC(C(C)(C)C)C2 (stereo unspecified) | -3%
CNC(=O)C1CCC(Cn2c(=O)c3sccc3n(CC(=O)Nc3ccc(C)cc3C)c2=O)CC1 (stereo unspecified) | 1%
Cc1cccc(N2CCN(C(=O)Cn3c(C)c4cnn(-c5ccccc5)c(=O)c4c3C)CC2)c1C | 6%
CCC(C)(C)n1nnnc1C(c1cc2ccc(C)cc2[nH]c1=O)N(Cc1cccnc1)Cc1ccco1 (stereo unspecified) | -21%

The list goes on.
SMILES | VDR inhibitor
Cc1ccc(CNC(=O)CSc2ccc(-c3cccs3)nn2)cc1 | -15%
Cc1ccc(N(C(=O)c2csnn2)C(C(=O)NC(C)(C)C)c2cccnc2)cc1C (stereo unspecified) | 8%
Cc1ccc(NC(=O)CC(C)S(=O)(=O)c2ccc3c(c2)NC(=O)CO3)cc1C (stereo unspecified) | -2%&8%
COc1ccccc1-n1c(SCC(=O)NC2CCS(=O)(=O)C2)nc2cc([N+](=O)[O-])ccc21 (stereo unspecified) | 7%
COc1ccc(/C(N)=N/OC(=O)c2ccc(OC)c([N+](=O)[O-])c2)cc1OC | -7%
N#Cc1ccc(NC(=O)COC(=O)CSc2nnc(-c3ccc(Cl)cc3)o2)cc1 | 7%
COc1cccc(NC(=O)C2CCC(CNC(=O)[C@@H]3Cc4ccccc4CN3)CC2)c1 (stereo partly specified) | 4%
COc1ccc(-n2cc(-c3ccccc3)c3c(NCCCN4CCOCC4)ncnc32)cc1 | -12%
O=C(COc1cccc2cccnc12)N1CCc2ccccc2C1 | -1%
COc1ccc2c(c1)c(C(C)=O)c(C)n2C | -7%
CC(C)c1cc(-c2cc(-c3ccc(Cl)cc3)on2)nc(NCC2CC2)n1 | -9%
C#CCN1C=CC(=O)[C@@H](OC(=O)Nc2ccc(OC)cc2)[C@H]1c1ccccc1Br | 10%
COc1cccc(=O)c2c(C)n(-c3ccc(C(=O)O)cc3)c(C)c12 | 6%
O=C(O)c1ccc(Cl)c(NCc2cccs2)c1 | 2%
Cc1cccc2cc3c(nc12)-c1ccccc1C3=O | 9%
c1ccc(COc2ccc(OCCCn3cncn3)cc2)cc1 | -4%
Cc1ccc(C(=O)/C=C/Nc2ccccn2)cc1 | -10%
Cc1ccc(-c2csc(NNC(=O)c3ccccc3)n2)cc1 | 1%
COc1cc(/C=C(\C#N)C(=O)Nc2ccc(SC(F)F)cc2)cc(OC)c1OC | -7%
COCCNC(=S)c1ccc(OC)cc1 | -28%

Screening data: PubChem BioAssay, National Center for Advancing Translational Sciences (NCATS)
